Cruzain inh noDet: blocks cruzain activity in detergent-free assay; P25779; purified cruzain, Z-FR-AMC fluorescence, no detergent; Potency, µM, without a hit: max response, negative = inhibition, usual class: inhibitors; 200,000 compounds, 2.3% hits; AID 1476;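 note: plate controls were enzyme without inhibitor for no effect and buffer without enzyme for full effect; nearly all actives have a fitted effect of over 40% in size; top concentration of the series not given in the record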
Target sequence (P25779 123-467 limits assumed): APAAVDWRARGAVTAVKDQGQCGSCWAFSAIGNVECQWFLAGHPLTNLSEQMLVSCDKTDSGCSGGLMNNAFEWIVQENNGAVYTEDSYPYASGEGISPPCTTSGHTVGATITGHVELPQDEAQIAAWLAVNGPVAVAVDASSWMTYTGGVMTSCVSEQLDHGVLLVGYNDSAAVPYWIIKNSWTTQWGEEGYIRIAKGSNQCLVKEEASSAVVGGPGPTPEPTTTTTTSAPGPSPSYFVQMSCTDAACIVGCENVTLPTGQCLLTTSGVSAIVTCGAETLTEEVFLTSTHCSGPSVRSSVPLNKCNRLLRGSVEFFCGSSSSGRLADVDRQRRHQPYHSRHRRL
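Detergent-free condition (0.00005% Triton X-100) in acetate buffer pH 5.5 with DTT. 1.5 nM enzyme and compound were pre-mixed 15 min, then 2 uM Z-FR-AMC substrate added; reaction progress from fluorescence change between first and third reads (60 s).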
NS1 inh: influenza NS1 inhibition; Potency, µM (top dose mostly 46.1 µM), for the others: top-dose activity, positive = more growth; S. cerevisiae slowed by influenza A NS1, growth recovery by OD600; 270,000 compounds, 0.4% hits; active means well fitted rising curve with a large enough effect; inconclusive means small, poorly fitted or top-dose-only effect; inactive means no such curve, though single readings can be large or run the other way; note: nearly all actives have a fitted effect of over 50% in size
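S. cerevisiae expressing influenza A NS1, grown in glucose, washed, then diluted 1:100 into pH 6.0 -URA galactose medium with 23 nl compound. Growth recovery read as OD600; NS1-free strain serves as control.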
SARS PLpro yeast: inhibitors of SARS-CoV papain-like protease in yeast; 330,000 compounds, 0.19% hits; Potency, µM (series often up to 32.9 µM), inactives show at the highest dose activity, positive = growth rescue; S. cerevisiae expressing SARS-CoV PLpro, growth rescue; control for the full effect not named in the record; active means well fitted rising curve with a large enough effect; inconclusive means small, poorly fitted or top-dose-only effect; inactive means no such curve, though single readings can be large or run the other way; note: 0% is about no effect; nearly all actives have a fitted effect of over 55% in size; growth read by luminescence after 48 h
Lassa entry inh: Lassa virus entry inhibition; Lassa virus pseudotype entry inhibition, cell reporter; control for the full effect not named in the record; Potency, µM (highest dose often 37.9 µM), for inactives: at the top dose activity change, negative = inhibition, hits mostly inhibitors; 300,000 compounds, 1.2% hits; AID 540256; active means well fitted inhibition curve with a large enough effect; inconclusive means small, poorly fitted or top-dose-only effect, or effect the other way; inactive means flat fitted curve, though single readings scatter; tested in HEK293 cells; note: % is set by controls: 0 for no effect and ±100 for the full control effect; nearly all actives have a fitted effect of over 50% in size; luciferase read-out
RE007 growth inh: less growth of the S. pombe RE007 Vpr strain; Potency, µM (top dose mostly 92.2 µM), for inactives: at the top dose activity change, negative = less growth; S. pombe RE007 Vpr strain, BacTiter-Glo ATP luminescence, 24 h; control for the full effect not named in the record; 360,000 compounds, 0.21% hits; AID 651644; active = well fitted falling curve with a large enough effect; inconclusive = small, poorly fitted or top-dose-only effect; inactive = no such curve, though single readings can be large or run the other way;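 note: % is set by controls: 0 for no effect and ±100 for the full control effect; nearly all actives have a fitted effect of over 50% in size; the assay follows cell death caused by Vpr and the record does not say whether a fall means rescue or toxicity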
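Fission yeast RE007 carrying one integrated HIV-1 vpr copy, seeded at OD 0.01 in PMG+AL medium with 23 nL pinned compound. Grown 24 h at 30 degrees; viability read by BacTiter-Glo luminescence after 5 min.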
MARV entry inh: Marburg virus entry inhibition; Marburg virus pseudotyped entry inhibition, cell reporter; control for the full effect not named in the record; about a third of the inactives were read at about 46 µM; Potency, µM (top dose mostly 37.8 µM), for inactives: at the highest dose activity change, negative = inhibition, hits mostly inhibitors; 300,000 compounds, 1.8% hits; AID 540276; active = well fitted inhibition curve with a large enough effect; inconclusive = small, poorly fitted or top-dose-only effect, or effect the other way; inactive = flat fitted curve, though single readings scatter; tested in HEK293 cells; about a fifth of its hits are not listed in these tables; note: % is set by controls: 0 for no effect and ±100 for the full control effect; luciferase read-out
Cruzain Triton: inhibitors of Trypanosoma cruzi cruzain with detergent; P25779; Potency, µM, for the others: max response, negative = inhibition, most hits filed as inhibitors; purified cruzain, Z-FR-AMC fluorescence, 0.01% Triton; 200,000 compounds, 0.43% hits;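 note: plate controls were neutral wells for no effect and buffer without enzyme for full effect; nearly all actives have a fitted effect of over 40% in size; top concentration of the series not given in the record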
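Detergent-containing arm of a paired screen for aggregation-based inhibition: 0.01% Triton X-100 present. Cruzain at 1.5 nM cleaved 2 uM Z-FR-AMC at pH 5.5 with 5 mM DTT; AMC fluorescence gain over 60 s measured activity.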
StopGo reporter: lowers the luciferase signal of an FMDV 2A StopGo reporter; human cells with a luciferase reporter of 2A StopGo recoding; control for the full effect not named in the record; Potency, µM (series often up to 57.9 µM), inactives show top-dose signal change, negative = less light; 410,000 compounds, 1.2% hits; active = well fitted falling curve with a large enough effect; inconclusive = small, poorly fitted or top-dose-only effect; inactive = no such curve, though single readings can be large or run the other way; tested in HEK293T cells; note: % is set by controls: 0 for no effect and ±100 for the full control effect; nearly all actives have a fitted effect of over 45% in size; luciferase light after 4 h
Numbers without * were called inactive; ? = inconclusive; · = not tested or not shown; [ ] = remark or other dose. Unless noted, calls come from the whole dose curve; as a rule, active = well fitted curve in the direction sought with a large enough effect; inconclusive = small, poorly fitted or top-dose-only effect, or another doubt; inactive = no such curve, though single readings can be large; an effect the other way counts as inactive or inconclusive. Potency is the fitted concentration of half-maximal effect. Compounds were not picked by outcome; overall some 4.7% were active at least once.

SMILES | Cruzain inh noDet | NS1 inh | SARS PLpro yeast | Lassa entry inh | RE007 growth inh | MARV entry inh | Cruzain Triton | StopGo reporter
Cc1c(NC(=O)c2c(F)c(F)c(F)c(F)c2F)c(=O)n(-c2ccccc2)n1C | -4% | -9% | 2% | 18% | 6% | 19%[46.1 µM] | 1.7% | -12%
CCCCC(=O)Nc1nnc(S(=O)(=O)N(C)Cc2ccco2)s1 | · | 0% | ? | · | 12% | · | · | 11%
CC(=O)Nc1sc(N)nc1-c1ccccc1 | -3% | -1% | -13% | · | -6% | · | 1.8% | -5%
CCn1c(=O)c(=O)[nH]c2cc(C(=O)N3CCN(c4ccccc4F)CC3)ccc21 | 2% | -8% | 4% | -6% | -5% | ? | 3.2% | -2%
CCOC(=O)c1nc(NCc2ccccc2F)c2ccccc2n1 | · | -7% | 0% | -21% | -8% | -12%[46.1 µM] | · | -12%
CC(C)CCNC(=O)NC(=O)COC(=O)C1CCN(S(=O)(=O)c2ccccc2F)CC1 | 6% | 4% | -10% | 6% | 1% | -1% | -11% | -21%
O=C(COC(=O)c1cc(Cl)ccc1O)NNC(=O)c1ccc([N+](=O)[O-])cc1 | · | · | 0% | 16% | 1% | 1% | · | 3%
Cc1c(C(=O)Nc2nc3ccccc3[nH]2)oc2c(Cl)cccc12 | 10% | 13% | -29% | ? | 5% | 9%[46.1 µM] | -1.8% | 35%[activator]
CNC(=O)COC(=O)c1ccc(Cl)c(S(=O)(=O)N2CCCC2)c1 | · | · | 1% | 9%[46.1 µM] | 3% | -1%[46.1 µM] | · | 9%
O=C1OC(c2ccc(Br)cc2)=N/C1=C\c1ccco1 | · | · | 2% | 19% | -15% | 2%[46.1 µM] | · | 14%
CC(C)(C)c1cc2nc3c(c(=O)n2[nH]1)CN(Cc1ccccc1)C3=O | · | -1% | 1% | · | 3% | · | · | -18%
N#Cc1c(/N=C/c2ccc(-c3ccc(C(=O)O)c(Cl)c3)o2)sc2c1CCCC2 | · | · | 1% | 14% | -13% | -4% | · | -5%
O=C1CC(c2ccccc2)c2ccccc21 (configuration not stated) | · | · | 1% | -9%[46.1 µM] | -2% | ? | · | -22%
CCc1ccc2c(c1)c1nc(C)sc1n2CC | 3% | -116% | -36% | 4% | ? | -13% | -6.7% | -12%
Cc1ccc(NC(=O)CC2NCCNC2=O)cc1 (configuration not stated) | -3% | -1% | 0% | 14% | 7% | -3% | 2.2% | 25%
Cc1onc(-c2ccccc2Cl)c1C(=O)Nc1sc2c(c1C#N)CCC2 | ? | -47% | -22% | 13% | 10%[3.69 µM] | ? | -24% | ?
CO/N=C(/CNC(=O)c1ccc(Cl)cc1Cl)c1ccc(Cl)cc1 | -4% | -20% | 4% | -16% | -7% | 10% | 4.6% | 6%
CCCc1cc(=O)[nH]c(Nc2ccc(C(=O)O)cc2)n1 | -6% | · | · | ? | · | 2%[46.1 µM] | -4.2% | -2%
COc1cc(C2NC(=O)NC(c3ccccc3)=C2C(C)=O)c(Br)cc1OCC(N)=O (configuration not stated) | · | 4% | ? | ? | ? | -2% | · | -12%
Cc1ccc(-c2nc3ncccc3o2)cc1N | · | -5% | 0% | · | 12% | · | · | 58%[activator]
CCOC(=O)N/N=C/c1c(C)nn(-c2cccc(C(F)(F)F)c2)c1Cl | 15% | -3% | -52% | 7.1µM* | 18% | ? | -8.7% | ?
Cc1cc(Cc2ccc([N+](=O)[O-])cc2)c(C)cn1 | · | 6% | -3% | -13% | 3% | ? | · | ?
CC1(c2ccc3noc(-c4ccccc4)c3c2)OCCO1 | -2% | -1% | -1% | ? | 6% | -15% | -8.1% | 16µM*
COc1ccc(NC(=O)c2cc(-c3ccc(C)cc3)on2)cc1OC | · | -10% | -4% | 6% | 6% | -1% | · | 3%
Cc1cc(C)n(Cc2ccc(Cl)c(Cl)c2)c(=O)c1S(=O)(=O)c1ccccc1 | 1% | -5% | 0% | 14% | 10% | 0% | 1.7% | 9%
O=C(C1CCN(S(=O)(=O)c2ccc3c(c2)OCCO3)CC1)N1CCc2ccccc21 | -9% | -23% | 18% | 1% | 7% | ? | -0.6% | -23%
CCOC(=O)C(Cc1ccccc1)c1ccnc2nc(N)nn12 (configuration not stated) | · | 1% | 1% | 0% | 10% | 23% | · | -8%
CCC(C)(C(=O)Nc1ccccc1C)N(C(=O)CNC(C)=O)c1ccccc1C (configuration not stated) | 4% | -3% | 1% | 0% | 12% | ? | 1.0% | -8%
Cc1ccc(Nc2c(-c3ccc(N4CCOCC4)cc3)nc3ccc(Cl)cn23)cc1 | 1% | · | · | 17%[46.1 µM] | · | -5%[46.1 µM] | -1.1% | -18%
COc1ccc(CCNC(=O)Cn2c(=O)cc(C(F)(F)F)c3c(C)nn(C)c32)c(OC)c1 | 19% | · | · | 24%[46.1 µM] | · | · | -2.8% | -14%
COc1cc(C(=O)N(C)C2CCCN(Cc3ccccc3F)C2)cc(OC)c1OC (configuration not stated) | · | 19% | 2% | -7% | -14% | -28% | · | -3%
Cc1nn(C(C)(C)C)c(OC(=O)CC(C)C)c1S(=O)(=O)c1ccccc1 | · | -1% | 2% | ? | 1% | ? | · | -23%
O=C(NCCc1csc(-c2ccc(Cl)cc2)n1)c1cccs1 | -7% | · | · | -24%[46.1 µM] | · | · | -8.4% | 25µM*
Cc1cc(=O)[nH]c(SCC(=O)N2CCC(C(N)=O)CC2)n1 | -3% | 4% | -3% | -11% | -5% | 1% | 1.8% | 0%
OCCOc1ccc(C2=NCCO2)cc1 | 2% | -1% | 6% | ? | -5% | -2% | 3.9% | 19%
O=C(CSc1nnc(CNC(=O)c2ccccc2F)o1)NCC1CCCO1 (configuration not stated) | 1% | ? | 8% | 1% | 5% | -6% | 3.4% | 12%
COc1ccc2[nH]c(C(=O)NCc3ccccc3)c(C)c2c1 | · | -3% | -1% | ? | -17% | ? | · | 13%
C=CCNC(=O)c1ccc(-n2cccc2)cc1 | · | · | 3% | ? | -6% | ? | · | 19%
N/C(=N\OC(=O)CCC1CCCCC1)c1ccc([N+](=O)[O-])cc1 | -9% | -32% | 7% | 18% | -15% | 6% | -9.2% | -21%
COC(=O)c1ccc(NS(=O)(=O)c2ccc3[nH]c4c(c3c2)CCCCC4)cc1 | ? | · | · | -4%[46.1 µM] | · | · | -7.1% | 42%[activator]
OC1(c2cn(Cc3ccccc3)nn2)CCCCC1 | 3% | -26% | -11% | -5% | 2% | 51% | 4.1% | -12%
O=C(COc1ccc(Cl)cc1Cl)NCCCCc1ccccc1 | 14% | -79% | -4% | -26% | 10% | 19% | -5.9% | 5%
CCCCCC(=O)Nc1nc2ccccc2[nH]1 | -11% | 3% | 11% | -16% | 0% | ? | ? | 41%[activator]
CCOC(=O)CCN=Cc1c(O)n(-c2ccc(Br)cc2)c(=O)[nH]c1=O | -1% | 4% | 1% | 0% | -3% | 1%[46.1 µM] | 2.8% | 5%
CC1=Nc2cc(C(=O)O)ccc2Sc2c(C)ccc(C)c21 | · | · | 0% | -9% | 11% | ? | · | -25%
O=C1NC(=O)N(Cc2ccccc2)CC1Br (configuration not stated) | · | · | · | ? | 19% | 12% | · | ?
CNC(=S)N/N=C/c1c2ccccc2c(Cl)c2ccccc12 | · | -19% | -7% | · | 1% | 3%[46.1 µM] | · | -11%
O=C(CCSc1ccccc1)Nc1nnc(-c2cccs2)o1 | · | -3% | 2% | · | 0% | · | · | -11%
N#CCSc1nc2c(sc(=S)n2Cc2ccco2)c(=O)n1-c1ccc(F)cc1 | ? | 0% | 6% | -10% | -12% | ? | -6.4% | ?
COCc1cc(C)nc(SCc2ccc(Cl)cc2)c1C#N | · | -37% | -7% | -9%[46.1 µM] | 2% | -15%[46.1 µM] | · | -20%
Following part:
SMILES | Cruzain inh noDet | NS1 inh | SARS PLpro yeast | Lassa entry inh | RE007 growth inh | MARV entry inh | Cruzain Triton | StopGo reporter
CCCN(CCC)S(=O)(=O)c1cccc(-c2csc(C)n2)c1 | · | -2% | -3% | 0% | -22% | ? | · | ?
COCCn1c(CNC(=O)c2ccc(C)cc2)nc2cccnc21 | -4% | · | · | -12%[46.1 µM] | · | · | 0.5% | -4%
CCOC(=O)c1nnn(CC(=O)Nc2cccc(F)c2)c1C(=O)OCC | -6% | -9% | 0% | -4% | 5% | -2% | 1.0% | -6%
N#C/C(=C(/O)COC(=O)CSc1ccc(Cl)cc1)c1nc2ccccc2[nH]1 | ? | 11% | 13% | 9% | 9% | -13% | -3.2% | ?
Cc1ccc(C)c(N2CCN(C(=O)C3CCN(Cc4nc(-c5cccc(Cl)c5)oc4C)CC3)CC2)c1 | -9% | · | · | -2%[46.1 µM] | · | ? | -1.7% | 20µM*
O=C(COc1ccc(NC(=O)c2ccccc2)cc1)c1ccccc1 | · | 6% | -3% | · | -4% | · | · | 4%
CCN1CCn2c1nc(N1CCCCC1)nc2=O | -1% | 2% | -1% | 26% | 15% | 7% | 2.8% | -18%
Cc1ccc(NC(=O)CN2CCN(C(=O)C3CCCO3)CC2)c(C)c1 (configuration not stated) | · | 4% | -1% | ? | 1% | 21% | · | -10%
COc1ccc(NC2CCCN(C(=O)CSc3ccccc3)C2)cc1OC (configuration not stated) | · | 7% | 1% | -15% | 5% | -7% | · | -26%
CCNc1nc(N)nc(-c2cc(Cl)ccc2O)n1 | -3% | -26% | -66% | ? | -2% | ? | -5.6% | 15%
CN1CCCC1=Nc1c2c(nc3ccccc13)N(C)CC2 | -16% | -5% | 6% | 4% | -19% | ? | -4.5% | -7%
COc1cc(/C=C/C(=O)c2ccc(Cl)s2)cc(OC)c1O | ? | -117% | -29% | ? | -22% | ? | -10% | 13µM*
